Screens as filed in PubChem BioAssay.
Env fusion inh: inhibitors of HIV-1 Env-driven cell-cell fusion, primary screen, HeLa-JRFL effector, CEM21 target cells, luciferase. actives 1.1% (n = 360,000). inhibition, % at 12.3 µM;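 active = mean replicate inhibition score of at least 50 and every replicate individually at or above 50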;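 also: 0% = plate neutral controls and 100% = maraviroc near 300 nM; one replicate is shown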
The depositor's hits bear a star; [ ] = remark or other dose.

SMILES	Env fusion inh
Cc1ccc(OC2CCN(C(=O)[C@@H](Cc3ccccc3)NC(=O)[C@H]3O[C@@H](n4ccc(=O)[nH]c4=O)[C@H](O)[C@@H]3O)CC2)cc1	7.8
C[C@@H]1CN([C@@H](C)CO)S(=O)(=O)c2ccc(-c3ccccc3)cc2O[C@@H]1CN(C)C(=O)C1CCC1	8.4[16.7 µM]
C/C=C/c1cnc2c(c1)C(=O)N([C@@H](C)CO)C[C@H](C)[C@H](CN(C)C(=O)C1CCC1)O2	-18.9[16.7 µM]
CC(=O)N(C)C[C@@H]1OCc2ccccc2-c2c(n(C)c3ccccc23)C(=O)N([C@@H](C)CO)C[C@@H]1C	44.0
COC(=O)C1=C(C)N(C)C(=NCC2CC2)NC1CCc1ccccc1 (configuration not stated)	13.2
COC(=O)c1cc(=O)nc(NN=C(C)C)s1	-3.6
COC(=O)C1=C(C)N(Cc2cccc(C(F)(F)F)c2)C(=NCC2CC2)NC1c1cccc(F)c1 (configuration not stated)	27.5
C[C@@H]1CCCCO[C@@H](CN(C)C(=O)c2ccccc2)[C@H](C)CN([C@@H](C)CO)C(=O)c2cc(NC(=O)c3ccncc3)ccc2O1	-5.4[16.7 µM]
COCCNC(=O)C[C@H]1CC[C@@H]2[C@H](COC[C@H](O)CN2Cc2cccc(-c3ccncc3)c2)O1	-19.8[16.7 µM]
CC(C)NC(=O)Nc1ccc2c(c1)C(=O)N([C@@H](C)CO)C[C@@H](C)[C@H](CN(C)C(=O)c1ccncc1)OCCCC[C@H](C)O2	-6.6[16.7 µM]
CN(C)C(=O)C[C@H]1CC[C@H]2[C@@H](COc3ccc(NC(=O)c4ccc(F)cc4)cc3C(=O)N2C)O1	4.4[16.7 µM]
C[C@H](CO)N1C[C@H](C)[C@@H](CN(C)Cc2cncnc2)Oc2cc(C#CC3CC3)ccc2S1(=O)=O	3.7[16.7 µM]
Cc1noc(C)c1S(=O)(=O)Nc1ccc2c(c1)C(=O)N([C@H](C)CO)C[C@H](C)[C@H](CN(C)S(=O)(=O)c1ccc(F)cc1)O2	6.2[16.7 µM]
C[C@H](CO)N1C[C@H](C)[C@H](CN(C)Cc2ccc3c(c2)OCCO3)OCc2cnnn2CCCC1=O	-0.4[16.7 µM]
CCCN1C[C@@H](C)[C@@H](OC)CN(C)C(=O)c2cc(NC(=O)c3cnccn3)ccc2OC[C@@H]1C	-2.0[16.7 µM]
C[C@@H]1CN([C@@H](C)CO)C(=O)c2cccc(NS(C)(=O)=O)c2O[C@@H]1CN(C)Cc1ccc(C(F)(F)F)cc1	3.6[16.7 µM]
CCOC(=O)N[C@H](C(=O)N1CCC[C@H]1C(=O)NCCc1ccccc1Cl)c1ccccc1	-0.5
Cc1ccccc1CN1[C@@H](C)[C@H](c2ccccc2)Oc2cccc(NCC(C)C)c2S1(=O)=O	21.8
O=C(N=Nc1c(O)[nH]c2c(Cl)cc(Cl)cc12)c1ccccc1O	-6.0
Cc1noc(C)c1S(=O)(=O)Nc1ccc2c(c1)CC(=O)N([C@H](C)CO)C[C@H](C)[C@@H](CN(C)Cc1ccc(-c3ccccc3)cc1)O2	-35.9[16.7 µM]
CCNC(=O)N1CCN(c2ccc(N3CCN(C(=O)NCC)[C@H](C)C3)c(C)c2)[C@@H](C)C1	4.3
C[C@@H]1CN([C@H](C)CO)C(=O)c2ccccc2-c2ccccc2CO[C@@H]1CN(C)Cc1ccc(F)cc1	-7.2[16.7 µM]
COc1cccc(CNC(=O)c2cc3c(c(-c4cccc(-c5ccc(C#N)cc5)c4)n2)[C@@H](CCO)N([S@](=O)C(C)(C)C)C3)c1	2.5[16.7 µM]
Nc1nc2cc3c(cc2cc1C(=O)NCc1cccnc1)OCO3	14.9
CCCNC(=O)C[C@H]1C[C@@H]2c3cc(NC(=O)COC)ccc3O[C@@H]2[C@@H](CO)O1	3.2[16.7 µM]

Single entries from above:
Value for CC(C)NC(=O)Nc1ccc2c(c1)C(=O)N([C@@H](C)CO)C[C@@H](C)[C@H](CN(C)C(=O)c1ccncc1)OCCCC[C@H](C)O2 under Env fusion inh: -6.6[16.7 µM]
Value for CCCNC(=O)C[C@H]1C[C@@H]2c3cc(NC(=O)COC)ccc3O[C@@H]2[C@@H](CO)O1 under Env fusion inh: 3.2[16.7 µM]
Value for C[C@@H]1CN([C@@H](C)CO)S(=O)(=O)c2ccc(-c3ccccc3)cc2O[C@@H]1CN(C)C(=O)C1CCC1 under Env fusion inh: 8.4[16.7 µM]

New compounds follow.
SMILES	Env fusion inh
CC(C)[C@H](NC(=O)c1ccc(Cl)cc1Cl)C(=O)N1CCC[C@H]1C(=O)NCc1ccccc1	3.9
CC(C)NC(=O)N(C)C[C@@H]1OCCCC[C@@H](C)Oc2ccc(N(C)C)cc2C(=O)N([C@H](C)CO)C[C@@H]1C	-3.6[16.7 µM]
CNC[C@H]1OCCCC[C@@H](C)Oc2ccc(NC(=O)Cc3ccccc3)cc2C(=O)N([C@H](C)CO)C[C@@H]1C	-0.2[16.7 µM]
CO[C@@H]1CN(C)C(=O)c2cc(NC(=O)Nc3ccccc3)ccc2OC[C@@H](C)N(C(=O)CC2CC2)C[C@H]1C	-1.9[16.7 µM]
C=CCN=C1NC(c2ccc(F)cc2)C(C(=O)OC)=C(C)N1Cc1ccccc1C(F)(F)F (configuration not stated)	7.5
C[C@H](CO)N1C[C@H](C)[C@@H](CN(C)C(=O)C2CC2)Oc2cc(-c3cccnc3)ccc2S1(=O)=O	23.2[16.7 µM]
C[C@@H](NC(=O)C[C@H]1C[C@@H]2c3cc(N(C)C)ccc3O[C@@H]2[C@@H](CO)O1)c1ccccc1	5.5[16.7 µM]
Cc1noc(C)c1S(=O)(=O)N(C)C[C@H]1OCc2ccccc2-c2c(n(C)c3ccccc23)C(=O)N([C@@H](C)CO)C[C@@H]1C	6.7[16.7 µM]
CC(C)NC(=O)Nc1ccc2c(c1)C(=O)N([C@@H](C)CO)C[C@@H](C)[C@H](CN(C)C(=O)c1ccccc1)OCCCC[C@H](C)O2	-3.6[16.7 µM]
O=C(CN1CCOCC1)N[C@@H]1CC[C@@H](CCNC(=O)C2CCC2)O[C@@H]1CO	-8.7[16.7 µM]
CN1CCN(C(=O)C[C@@H]2C[C@H]3c4cc(NS(C)(=O)=O)ccc4O[C@H]3[C@H](CO)O2)CC1	-5.4[16.7 µM]
COc1cccc(CNC(=O)C[C@H]2CC[C@@H]3[C@H](COc4ccc(NS(=O)(=O)c5ccccc5F)cc4C(=O)N3C)O2)c1	-0.4[16.7 µM]
O=C(O)[C@@H]1[C@@H](CO)[C@@H]2Cn3c(ccc(-c4cccc(F)c4)c3=O)[C@@H]2N1C(=O)c1ccccn1	-0.2[16.7 µM]
C[C@H](CO)N1C[C@H](C)[C@H](CN(C)Cc2cncnc2)Oc2cc(C#CC3CC3)ccc2S1(=O)=O	13.2[16.7 µM]
COC(=O)C1=C(C)N(Cc2ccccc2C(F)(F)F)C(=NCc2ccc3c(c2)OCO3)NC1c1ccc(C(F)(F)F)cc1 (configuration not stated)	-4.6
O=C(C[C@H]1C=C[C@H](NC(=O)c2ccncc2)[C@@H](CO)O1)NCC1CC1	15.3[16.7 µM]
Cc1noc(C)c1NC(=O)Nc1ccc2c(c1)C(=O)N([C@H](C)CO)C[C@@H](C)[C@H](CN(C)S(=O)(=O)c1ccc(Cl)cc1)OCCCC[C@H](C)O2	-20.3[16.7 µM]
COC(=O)C[C@H]1CC[C@H](N)[C@@H](CO)O1	-5.3[16.7 µM]
CN(C)C(=O)C[C@@H]1C[C@@H]2c3cc(NC(=O)CC4CC4)ccc3O[C@@H]2[C@@H](CO)O1	-16.7[16.7 µM]
C[C@@H]1CN([C@@H](C)CO)C(=O)c2cc(NC(=O)Cc3ccccc3)ccc2O[C@H]1CN(C)Cc1ccc(C(=O)O)cc1	-14.7[16.7 µM]
O=C(C[C@@H]1C[C@@H]2c3cc(NC(=O)C4CCOCC4)ccc3O[C@@H]2[C@H](CO)O1)NCc1cccnc1	-5.9[16.7 µM]
COc1ccc2c3c(n(C)c2c1)[C@@H](CO)N(C(=O)Nc1ccc(F)cc1)CC31CCN(S(=O)(=O)c2cccc(F)c2)CC1	15.7[16.7 µM]
O=C(C[C@@H]1CC[C@@H](NC(=O)CC2CC2)[C@@H](CO)O1)NCc1ccc(Cl)cc1	-26.3[16.7 µM]
CO[C@H]1CC[C@@H]2CCOc3c(C#N)cccc3C(=O)N(C)C[C@@H](OC)[C@@H](C)C(=O)N(C)C[C@@H]1O2	10.9[16.7 µM]
CCOC(=O)N(C)C[C@@H]1OCc2cn(nn2)CCCC(=O)N([C@@H](C)CO)C[C@@H]1C	2.0[16.7 µM]
Later entries:
SMILES	Env fusion inh
COc1ccc(C[C@@H]2CCc3cnnn3COC[C@H](CC(C)C)NC2=O)cc1	-11.6[16.7 µM]
CO[C@@H]1CN(C)C(=O)c2cc(NC(=O)c3ccccc3)ccc2OC[C@H](C)N(CC2CC2)C[C@H]1C	17.4[16.7 µM]
C[C@H](CO)N1C[C@H](C)[C@@H](CN(C)CC2CCOCC2)Oc2cc(-c3cccnc3)ccc2S1(=O)=O	-2.7[16.7 µM]
C[C@@H]1CN([C@H](C)CO)C(=O)c2cc(NC(=O)Nc3ccc(C(F)(F)F)cc3)ccc2O[C@@H](C)CCCCO[C@H]1CN(C)C	-16.1[16.7 µM]
CO[C@@H]1CN(C)C(=O)c2cc(NC(=O)C3CC3)ccc2OC[C@H](C)N(C(=O)NC(C)C)C[C@H]1C	4.4[16.7 µM]
COc1ccccc1C(=O)Nc1ccc2c(c1)C(=O)N(C)[C@@H]1CC[C@H](CC(=O)NCCc3ccncc3)O[C@H]1CO2	-0.2[16.7 µM]
CN1C(=O)c2cc(NC(=O)Nc3ccc(Cl)cc3)ccc2OC[C@@H]2O[C@@H](CC(=O)NCCN3CCCCC3)CC[C@@H]21	8.2[16.7 µM]
CO[C@H]1CN(C)C(=O)c2cc(NC(=O)c3ccccc3F)ccc2OC[C@@H](C)N(C(C)=O)C[C@H]1C	-4.9[16.7 µM]
C[C@H](CO)N1C[C@H](C)[C@H](CN(C)C(=O)Nc2ccccc2)OCCCC[C@H](C)Oc2ccc(N(C)C)cc2C1=O	29.1[16.7 µM]
CCS(=O)(=O)NCC[C@H]1CC[C@H](NC(=O)C2CC2)[C@H](CO)O1	41.2[16.7 µM]
COc1ccc2c3c(n(C)c2c1)[C@H](CO)N(S(C)(=O)=O)CC31CCN(CC2CC2)CC1	-13.6[16.7 µM]
C[C@@H]1CN([C@@H](C)CO)C(=O)c2c(c3ccccc3n2C)-c2ccccc2CO[C@H]1CN(C)Cc1cccnc1	8.9[16.7 µM]
COc1cccc(S(=O)(=O)N[C@H]2CC[C@@H](CCN)O[C@H]2CO)c1	-38.7[16.7 µM]
C[C@H](CO)N1C[C@H](C)[C@H](CN(C)CC2CC2)OCCCC[C@H](C)Oc2ccc(NS(=O)(=O)c3cn(C)cn3)cc2C1=O	3.2[16.7 µM]
CN1CC[C@@H]2CN(S(=O)(=O)c3ccccc3)[C@H](c3ccccc3Br)C[C@@H]21	12.7
CC(C)NC(=O)N(C)C[C@H]1Oc2ccc(NC(=O)Cc3cn(C)c4ccccc34)cc2CC(=O)N([C@H](C)CO)C[C@H]1C	13.1[16.7 µM]
C[C@@H]1CN([C@H](C)CO)C(=O)c2cc(NC(=O)Nc3ccccc3)ccc2O[C@@H](C)CCCCO[C@H]1CN(C)S(=O)(=O)c1ccccc1	6.1[16.7 µM]
CO[C@@H]1CN(C)C(=O)c2cc(NC(C)=O)ccc2OC[C@@H](C)N(C(=O)c2cnccn2)C[C@@H]1C	37.4[16.7 µM]
COc1ccc(C(=O)NCC2CCN(C(=O)C(=O)c3cc4ccccc4o3)CC2)c(OC)c1	-0.4
CC(C)(C)[S@](=O)N1Cc2cc(C(=O)NCc3ccc4c(c3)OCO4)nc(-c3cccc(-c4cccnc4)c3)c2[C@@H]1CCO	7.9[16.7 µM]
CC=Cc1ccc2n(c1=O)C[C@H]1[C@H](CO)[C@@H](C(=O)NCc3ccccn3)[C@@H]2N1C (mixture of isomers)	12.7[16.7 µM]
C[C@@H]1CN([C@@H](C)CO)C(=O)c2c(c3ccccc3n2C)-c2ccccc2CO[C@@H]1CN(C)S(=O)(=O)c1cccc(C#N)c1	-61.4[16.7 µM]
CCCNC(=O)C[C@@H]1CC[C@H]2[C@@H](COC[C@H](O)CN2C(=O)c2cccnc2)O1	7.8[16.7 µM]
Cn1cnc(CCNC(=O)[C@H]2[C@H](CO)[C@H]3Cn4c(cccc4=O)[C@H]3N2C(=O)Nc2ccccc2)c1	-0.4[16.7 µM]
COc1cccc(CC(=O)NCC2CCN(C(=O)C(=O)c3cccs3)CC2)c1	-31.3
COc1ccc(CN(C)C[C@H]2Oc3ccc(NC(=O)Cn4cnnn4)cc3C(=O)N([C@H](C)CO)C[C@H]2C)cc1	-0.7[16.7 µM]
CC(=O)N1[C@H](C(=O)NCc2ccccc2Cl)[C@@H](CO)[C@@H]2Cn3c(ccc(-c4cncnc4)c3=O)[C@@H]21	11.2[16.7 µM]
CO[C@H]1CC[C@H]2CCOc3ccc(C#N)cc3C(=O)N(C)C[C@H](OC)[C@H](C)C(=O)N(C)C[C@@H]1O2	13.4[16.7 µM]
CO[C@H]1CN(C)C(=O)c2ccc(NC(=O)C3CCCC3)cc2OC[C@@H](C)N(Cc2cocn2)C[C@H]1C	1.7[16.7 µM]

Nothing new here: entries from further up.
SMILES	Env fusion inh
CO[C@H]1CC[C@H]2CCOc3ccc(C#N)cc3C(=O)N(C)C[C@H](OC)[C@H](C)C(=O)N(C)C[C@@H]1O2	13.4[16.7 µM]
CO[C@H]1CN(C)C(=O)c2ccc(NC(=O)C3CCCC3)cc2OC[C@@H](C)N(Cc2cocn2)C[C@H]1C	1.7[16.7 µM]

Entries shown so far that have a cyano group:
SMILES	Env fusion inh
COc1cccc(CNC(=O)c2cc3c(c(-c4cccc(-c5ccc(C#N)cc5)c4)n2)[C@@H](CCO)N([S@](=O)C(C)(C)C)C3)c1	2.5[16.7 µM]
CO[C@H]1CC[C@@H]2CCOc3c(C#N)cccc3C(=O)N(C)C[C@@H](OC)[C@@H](C)C(=O)N(C)C[C@@H]1O2	10.9[16.7 µM]
C[C@@H]1CN([C@@H](C)CO)C(=O)c2c(c3ccccc3n2C)-c2ccccc2CO[C@@H]1CN(C)S(=O)(=O)c1cccc(C#N)c1	-61.4[16.7 µM]
CO[C@H]1CC[C@H]2CCOc3ccc(C#N)cc3C(=O)N(C)C[C@H](OC)[C@H](C)C(=O)N(C)C[C@@H]1O2	13.4[16.7 µM]

An excerpt; the hit share may differ from the screen's.
